High-throughput results as filed in PubChem.
nsP2pro primary: blocks chikungunya virus nsP2 protease peptide cleavage; Q8JUX6; FRET peptide cleavage, nsP2pro, fluorescence 1 h; Potency, µM (top dose mostly 24.9 µM), for the others: at the top dose activity change, negative = inhibition, hits mostly inhibitors; 31,000 tested, 1.1% active; AID 1964107; active means well fitted inhibition curve with a large enough effect; inconclusive means small, poorly fitted or top-dose-only effect; inactive means no such curve, though single readings can be large or run the other way; further: nearly all actives have a fitted effect of over 60% in size; a reference inhibitor and vehicle were the controls
Starred values were filed as active, the others as inactive; ? = inconclusive; & = joins results of further samples; [ ] = remark or other dose. On the % scale 0 is the no-effect control and ±100 the full control effect; potency means the concentration at half of the fitted maximal effect. A portion of the library; the hit share may differ from the screen's.

SMILES | nsP2pro primary
Cc1c(C)n(Cc2ccc(-c3ccccc3C(=O)O)cc2)c2ccc(C(=O)N[C@@H](C)c3ccc([N+](=O)[O-])cc3)cc12 | 38%[activator]
Cc1ccc(=O)n(-c2ccccc2)c1 | 10%
O=C(Nc1ccn(Cc2ccc(O)cc2C(F)(F)F)n1)c1c(F)cccc1F | ?
O=c1oc2c(O)c(O)cc3c(=O)oc4c(O)c(O)cc1c4c23 | 8%[10 µM]
O=C1N=C(N2CCOCC2)CN1c1ccc(Cl)cc1 | -5%&-10%
CCOc1cc2ncc(C#N)c(Nc3ccc(OCc4ccccn4)c(Cl)c3)c2cc1NC(=O)/C=C/CN(C)C | 18%[5.1 µM]
Cc1cccc(N2CCN(C(=O)CCC(=O)NNc3nc4ccccc4c4nc(C)nn34)CC2C)c1 (stereo unspecified) | -4%
CN(C)C(=O)NC1CCC(CCN2CCN(c3cccc(Cl)c3Cl)CC2)CC1 (stereo unspecified) | -2%[10 µM]
Cn1cc(S(C)=O)c(=O)c2ccc(F)cc21 (stereo unspecified) | -7%
C[C@H](NCc1ccc(OCc2cccc(F)c2)cc1)C(N)=O | 2%&-12%
CCN(CC)CCNC(C(=O)OCCC(C)C)c1ccccc1 (stereo unspecified) | -3%
Cc1ccc2c(Nc3ccc(Cl)cc3)nccc2c1Nc1ncccc1-c1ncnc2nc[nH]c12 | 33%
COc1ccnc(CCc2nc3ncccc3[nH]2)c1 | ?
CN1CCc2c(n(Cc3ccc(C(=O)NO)cc3)c3ccccc23)C1 | 14%
CC12CC3CC(C)(C1)CC(N)(C3)C2 | ?
C#Cc1cccc(Nc2ncnc3cc(OC)c(OCCCCCCC(=O)NO)cc23)c1 | 298%[activator]
Cc1cc2occ(CN(C)CCN(C)Cc3cn(-c4cccc(C(F)(F)F)c4)c4ccccc34)c(=O)c2cc1C | 157%[activator]
CCOc1ccc(-n2c([C@@H](C)N(Cc3cccnc3)C(=O)Cc3ccc(OC(F)(F)F)cc3)nc3ncccc3c2=O)cc1 | 15%
CCc1ccc(CCOc2ccc(CC3SC(=O)NC3=O)cc2)nc1 (stereo unspecified) | 8%
Fc1ccc(-c2nc(-c3ccccc3F)[nH]c2-c2ccncc2)cc1 | 43%
CC[C@@H](Nc1c(Nc2cccc(C(=O)N(C)C)c2O)c(=O)c1=O)c1ccc(C)o1 | -6%
CCCCCCCC/C=C/CCCCCCCC(=O)O | -24%&-7%
COc1ccc(-c2cc3nccn3c(Nc3ncccc3C(N)=O)n2)cc1OC | 46%[activator]
Cc1ccc(NC(=O)C2(c3ccc4c(c3)OC(F)(F)O4)CC2)nc1-c1cccc(C(=O)O)c1 | -2%&-8%
NC1CCN(c2nc3c(cc2F)c(=O)c(C(=O)O)cn3-c2ccc(F)cc2F)C1 (stereo unspecified) | 0%
CCCN1CCN(c2ccc(C(=O)NC3(C(=O)NCC#N)CCCCC3)cc2)CC1 | ?
Cc1cc(Nc2nc(N[C@@H](C)c3ncc(F)cn3)ncc2Cl)n[nH]1 | 15%&2%
COc1nccc(-c2c(-c3ccc(F)cc3)ncn2C2CCC(O)CC2)n1 (stereo unspecified) | -9%
COc1ccc(-n2c(SCC#N)nc3sc4c(c3c2=O)CCCC4)cc1 | -10%
c1cc(-c2cnn3cc(-c4ccc(N5CCNCC5)cc4)cnc23)c2cccnc2c1 | 22%
CCc1cccc(CC)c1NC(=O)N1Cc2[nH]nc(NC(=O)c3ccc(N4CCN(C)CC4)cc3)c2C1 | 9%&72%
CNC1CCC(N(Cc2cccc(-c3ccncc3)c2)C(=O)c2sc3ccccc3c2Cl)CC1 (stereo unspecified) | 165%[activator]
O=C1COc2nccc(-c3ccccc3F)c2CN1Cc1cc(C(F)(F)F)cc(C(F)(F)F)c1 | -19%
COc1ccc(NC(=O)N2CCc3c2ccc2ccccc32)cc1N1CCN(C)CC1 | 26%
O=C(NC1CCOCC1)c1ccc(-c2cc(-c3cn[nH]c3-c3ccccn3)ccn2)cc1 | 53%[activator]
CC(=O)CCCCn1c(=O)c2c(ncn2C)n(C)c1=O | ?
CN1CCN(c2ccc(OC(F)(F)F)c(Nc3ncc4c(n3)-c3c(c(C(N)=O)nn3CCO)CC4)c2)CC1 | -5%
CC(C)COC(=O)c1ccc(N)cc1 | -2%
CNC(=O)c1c(F)cccc1Nc1nc(Nc2cc3c(cc2OC)CCN3C(=O)CN(C)C)nc2[nH]ccc12 | 145%[activator]
CCOC(=O)[C@H](CCc1ccccc1)N[C@H]1CS[C@H](c2cccs2)CN(CC(=O)O)C1=O | -11%&2%
NC(N)=O | -7%
CCCCCC(=O)O[C@]1(C(C)=O)CC[C@H]2[C@@H]3CCC4=CC(=O)CC[C@]4(C)[C@H]3CC[C@@]21C | -5%
CC(C)(F)C[C@H](N[C@@H](c1ccc(-c2ccc(S(C)(=O)=O)cc2)cc1)C(F)(F)F)C(=O)NC1(C#N)CC1 | ?
Cc1cnc(Nc2ccc(CN3CCOCC3)cc2)nc1Nc1cccc(S(=O)(=O)NC(C)(C)C)c1 | 48%[activator]
CCn1cc(C(=O)O)c(=O)c2cnc(N3CCNCC3)nc21 | 9%
O=C(Nc1cc(-c2ccccc2)nn1-c1ccccc1)c1ccc([N+](=O)[O-])cc1 | -5%
COc1cc(Oc2ccnc3cc(OC)c(OC)cc23)ccc1NC(=O)NC(C)c1nccs1 (stereo unspecified) | 20%
Nc1nc(Nc2ccc3c(c2)CC[C@@H](N2CCCC2)CC3)nn1-c1cc2c(nn1)-c1ccccc1CCC2 | 68%[activator]
CC(=O)Nc1ccc(CC(=O)O)cc1 | 2%
Cn1c(CNc2ccc(C(=N)N)cc2)nc2cc(C(=O)N(CCC(=O)O)c3ccccn3)ccc21 | -9%[0.199 µM]
O=C(Nc1ccnc(NC(=O)C2CC2)c1)c1c(Cl)cccc1Cl | 1%
CNc1nc(C)nc(N[C@H]2CCC[C@@H](C(=O)NCc3ccc(C#N)cc3C(F)(F)F)C2)n1 | -11%
N[C@@H](CC(=O)N1CCn2c(nnc2C(F)(F)F)C1)Cc1[nH]nc2c(F)c(F)ccc12 | -7%
O=C(CC12CC3CC(CC(C3)C1)C2)Nc1cccc2nc(NCCNCCO)ccc12 | 65%[activator]
O=c1[nH]c2cccc(N3CCN(Cc4ccc(-c5ccccc5)cc4)CC3)c2o1 | 11%
c1ccc(Nc2nc3c(s2)CCCc2[nH]ncc2-3)nc1 | -23%
CCNC(=O)Nc1ccc(-c2nc3c(c(N4CCOC[C@@H]4C)n2)CCN(c2ncccn2)C3)cc1 | 24%
CN(C)CCCC1(c2ccc(F)cc2)OCc2cc(C#N)ccc21 (stereo unspecified) | 9%&-1%
CC[C@@H](C)[C@H](N)C(=O)N1Cc2ccccc2C1 | -28%
CCCC(N[C@@H](C)C(=O)N1[C@H](C(=O)O)C[C@@H]2CCCC[C@@H]21)C(=O)OCC (stereo partly specified) | ?

Carrying on:
SMILES | nsP2pro primary
COc1ccnc2[nH]cc(C(=O)C(=O)N3CCN(C(=O)c4ccccc4)C[C@H]3C)c12 | -12%&-13%
CO/N=C(/C(=O)N[C@@H]1C(=O)N2C(C(=O)[O-])=C(C[n+]3ccn4ncccc43)CS[C@H]12)c1nsc(N)n1 | -29%
c1cnc2cc3c(cc2n1)C1CNCC3C1 | -15%&-6%
O=C(NCCCNc1nc(Nc2cccc(CN3CCOCC3)c2)ncc1C1CC1)C1CCC1 | 4%
COc1ccc(-c2cc(=S)ss2)cc1 | 11µM*
CC1(C)CNc2cc(NC(=O)c3cccnc3NCc3ccncc3)ccc21 | 43%[activator]
CC(C)COc1ccc(CNC(=O)N(Cc2ccc(F)cc2)C2CCN(C)CC2)cc1 | 26%&16%
CCCCNc1ccc(C(=O)OCCOCCOCCOCCOCCOCCOCCOCCOCCOC)cc1 | 10%
COc1cn(-c2ccc(-n3cccn3)cc2F)nc(-c2ccnn2-c2ccccc2)c1=O | -7%
Cc1cc(C)c(CNC(=O)c2cc(-c3ccc(CN4CCOCC4)cc3)cc3c2cnn3C2CCCC2)c(=O)[nH]1 | 6%
O=C(CSc1nc2ccccc2n1Cc1cccc(Cl)c1)N1CCN(c2ccc(F)cc2)CC1 | -22%
CCn1c(-c2nonc2N)nc2cncc(C(=O)N3CC[C@H](N)C3)c21 | -2%
CNC(=O)c1nn(C)c2c1C(C)(C)Cc1cnc(Nc3ccc(N4CCN(C)CC4)cc3)nc1-2 | ?
Cc1cccc(-c2nn3c(c2-c2ccnc4ccc(C(N)=O)cc24)CCC3)n1 | -7%
COc1ccncc1C(=O)NC(=O)Nc1ccc(-c2ccccc2)c(C(F)(F)F)c1 | -5%
O=C(NCc1cccc(O)c1)c1cc2cc(F)ccc2[nH]1 | 1%
COc1ccc(CC(=O)Nc2c(C(=O)N3CCN(c4ccccc4F)CC3)oc3ccccc23)cc1OC | -10%
CS(=O)(=O)c1ccc(-c2cnc(N)c(C(=O)Nc3ccccc3)n2)cc1 | -4%
O=c1c2cccnc2n(-c2cccc([N+](=O)[O-])c2)c(=O)n1Cc1ccncc1 | -12%
Oc1ccc(C2CNCCc3c2cc(O)c(O)c3Cl)cc1 (stereo unspecified) | -11%
O=C(O)[C@@H]1C[C@H]2C[C@@H](CCc3nn[nH]n3)CC[C@H]2CN1 | ?
O=C(O)[C@H](Cc1ccccc1)Oc1ccc(-c2ccccc2)cc1 | -10%
Cc1c(F)cc(C(=O)NC2CC2)cc1-c1ccc(C(=O)NCC(C)(C)C)cn1 | -10%
CC(C)(Cc1nc(-c2ccc(O)cn2)no1)C(=O)NC1=C(C(=O)O)CCCC1 | -16%
O=C(Nc1ccc2[nH]nc(-c3ccncc3)c2c1)[C@@H]1CCN(CC(=O)N2CCN(c3ccc(-c4ncccn4)cc3)CC2)C1 | 149%[activator]
CCNC(=O)NCCCOc1cccc(CN2CCCCC2)c1 | 0%
CNC(=O)Nc1ccc(OC)c(NC(=O)NC(=O)c2cc(F)c(F)cc2Cl)c1 | 11%
CC(C)c1cc(-c2n[nH]c(=O)n2-c2ccc3c(ccn3C)c2)c(O)cc1O | 10%&9%
CNCCCN1c2ccccc2CCc2ccccc21 | ?
Cc1cc2c(F)c(Oc3ncnn4cc(OC[C@@H](C)OC(=O)[C@H](C)N)c(C)c34)ccc2[nH]1 | 159%[activator]
COc1ccc(OC)c(-c2ccc(NC(=O)c3ccncc3F)cc2)c1 | -7%
Cc1ccc(N(CC2=NCCN2)c2cccc(O)c2)cc1 | 20%
COc1cccc(Nc2ncnn3ccc(CN4CC[C@@H](N)[C@H](O)C4)c23)c1 | 39%[activator]
CCC(CC)n1ccc2c(C(=O)NCc3c(C)cc(C)[nH]c3=O)cc(C#N)cc21 | -4%
CC(C(=O)O)c1ccc2c(c1)CC(=O)c1ccccc1S2 (stereo unspecified) | -10%&9%
N[C@H]1CN(c2c(F)cc3c(=O)c(C(=O)O)cn(C4C[C@@H]4F)c3c2Cl)CC12CC2 (stereo partly specified) | -7%

For reference, some entries already given:
SMILES | nsP2pro primary
COc1cn(-c2ccc(-n3cccn3)cc2F)nc(-c2ccnn2-c2ccccc2)c1=O | -7%
Cc1cc(C)c(CNC(=O)c2cc(-c3ccc(CN4CCOCC4)cc3)cc3c2cnn3C2CCCC2)c(=O)[nH]1 | 6%
O=C(CSc1nc2ccccc2n1Cc1cccc(Cl)c1)N1CCN(c2ccc(F)cc2)CC1 | -22%
CCn1c(-c2nonc2N)nc2cncc(C(=O)N3CC[C@H](N)C3)c21 | -2%
CNC(=O)c1nn(C)c2c1C(C)(C)Cc1cnc(Nc3ccc(N4CCN(C)CC4)cc3)nc1-2 | ?
Cc1cccc(-c2nn3c(c2-c2ccnc4ccc(C(N)=O)cc24)CCC3)n1 | -7%
COc1ccncc1C(=O)NC(=O)Nc1ccc(-c2ccccc2)c(C(F)(F)F)c1 | -5%
O=C(NCc1cccc(O)c1)c1cc2cc(F)ccc2[nH]1 | 1%
COc1ccc(CC(=O)Nc2c(C(=O)N3CCN(c4ccccc4F)CC3)oc3ccccc23)cc1OC | -10%
CS(=O)(=O)c1ccc(-c2cnc(N)c(C(=O)Nc3ccccc3)n2)cc1 | -4%
O=c1c2cccnc2n(-c2cccc([N+](=O)[O-])c2)c(=O)n1Cc1ccncc1 | -12%
Oc1ccc(C2CNCCc3c2cc(O)c(O)c3Cl)cc1 (stereo unspecified) | -11%
O=C(O)[C@@H]1C[C@H]2C[C@@H](CCc3nn[nH]n3)CC[C@H]2CN1 | ?
O=C(O)[C@H](Cc1ccccc1)Oc1ccc(-c2ccccc2)cc1 | -10%
Cc1c(F)cc(C(=O)NC2CC2)cc1-c1ccc(C(=O)NCC(C)(C)C)cn1 | -10%
CC(C)(Cc1nc(-c2ccc(O)cn2)no1)C(=O)NC1=C(C(=O)O)CCCC1 | -16%
O=C(Nc1ccc2[nH]nc(-c3ccncc3)c2c1)[C@@H]1CCN(CC(=O)N2CCN(c3ccc(-c4ncccn4)cc3)CC2)C1 | 149%[activator]
CCNC(=O)NCCCOc1cccc(CN2CCCCC2)c1 | 0%
CNC(=O)Nc1ccc(OC)c(NC(=O)NC(=O)c2cc(F)c(F)cc2Cl)c1 | 11%
CC(C)c1cc(-c2n[nH]c(=O)n2-c2ccc3c(ccn3C)c2)c(O)cc1O | 10%&9%
CNCCCN1c2ccccc2CCc2ccccc21 | ?
Cc1cc2c(F)c(Oc3ncnn4cc(OC[C@@H](C)OC(=O)[C@H](C)N)c(C)c34)ccc2[nH]1 | 159%[activator]
COc1ccc(OC)c(-c2ccc(NC(=O)c3ccncc3F)cc2)c1 | -7%
Cc1ccc(N(CC2=NCCN2)c2cccc(O)c2)cc1 | 20%
COc1cccc(Nc2ncnn3ccc(CN4CC[C@@H](N)[C@H](O)C4)c23)c1 | 39%[activator]
CCC(CC)n1ccc2c(C(=O)NCc3c(C)cc(C)[nH]c3=O)cc(C#N)cc21 | -4%
CC(C(=O)O)c1ccc2c(c1)CC(=O)c1ccccc1S2 (stereo unspecified) | -10%&9%
N[C@H]1CN(c2c(F)cc3c(=O)c(C(=O)O)cn(C4C[C@@H]4F)c3c2Cl)CC12CC2 (stereo partly specified) | -7%
